Bioassay records from PubChem.
Vaccinia inh – Vaccinia orthopox stage-specific inhibition; activity change (mCherry), % (test concentration not listed); actives 0.01% (n = 89,000); Vaccinia-infected cells, mCherry/Venus stage reporter fluorescence; active compounds read low; some inactives read as strong as hits;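 active = mCherry past -33% and 40 or more points under the early reporter, replicates agreeing; inconclusive = past -33% without that gap or agreement; tested in A549 cells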;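 also: scaled between vehicle wells and reference inhibitor wells; 23 nL library stock went into each well; one replicate is shown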
Vaccinia inh Venus – also measured in Vaccinia inh; calls as there; activity change (Venus), %; measured here: Venus reporter, other viral stage;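 negative = less Venus signal; first of two replicates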
Starred values were filed as active, the others as inactive; ? = inconclusive; / = not tested or not shown; & = joins results of further samples. This is a subset; the hit share may differ from the screen's.

(1) C[C@H]1CN([C@@H](C)CO)C(=O)c2cccc(NS(=O)(=O)c3ccccc3)c2O[C@H]1CN(C)C(=O)NC1CCCCC1
(2) CCC(=O)N1C[C@@H](O)COC[C@@H]2O[C@H](CC(=O)N3CCCCC3)CC[C@H]21
(3) CN(C)C(=O)c1cccc(-c2ccc(C3[C@H]4CNC[C@@H]3N4C(=O)Nc3cc(F)ccc3F)cc2)c1 (stereo not given in full)
(4) CC(C)NC(=O)Nc1cccc2c1O[C@@H](CN(C)S(=O)(=O)c1ccc(F)cc1)[C@@H](C)CN([C@@H](C)CO)C2=O
(5) C[C@@H]1CN([C@@H](C)CO)S(=O)(=O)c2ccc(-c3cncnc3)cc2O[C@H]1CN(C)C(=O)Cc1cccnc1
(6) CCNC(=O)C[C@@H]1CC[C@@H]2[C@@H](COc3ccc(NC(=O)Nc4ccccc4OC)cc3C(=O)N2C)O1
(7) CCC(=O)N(C)C[C@@H]1Oc2ncc(C#Cc3ccccc3OC)cc2C(=O)N([C@H](C)CO)C[C@H]1C
(8) COc1ccc(NC(=O)N(C)C[C@H]2Oc3ccc(NC(=O)CCN4CCOCC4)cc3CC(=O)N([C@H](C)CO)C[C@H]2C)cc1

Assay by compound | 1 | 2 | 3 | 4 | 5 | 6 | 7 | 8
Vaccinia inh | 2 | 33 | 5&11 | -9 | 26 | 8 | -6 | 12
Vaccinia inh Venus | -2 | 25 | 9&4 | -4 | 13 | 8 | -20 | 2

(9) COc1ccc2c3c(n(C)c2c1)[C@@H](CO)N(Cc1ccccc1)CC31CCN(S(=O)(=O)c2ccc(C)cc2)CC1
(10) C[C@H](CO)N1C[C@H](C)[C@@H](CN(C)C)Oc2ncc(-c3cccc(C#N)c3)cc2C1=O
(11) C[C@@H]1CN([C@H](C)CO)S(=O)(=O)c2ccc(C#CC3CC3)cc2O[C@@H]1CN(C)C(=O)c1ccncc1
(12) CO[C@@H]1CN(C)C(=O)c2cc(NC(=O)C3CCC3)ccc2OC[C@@H](C)N(Cc2ccc(F)cc2)C[C@@H]1C
(13) CC(C)C#Cc1cnc2c(c1)C(=O)N([C@@H](C)CO)C[C@@H](C)[C@H](CN(C)Cc1cccc(F)c1)O2
(14) COc1ccccc1C(=O)N1C[C@H]2[C@@H](c3ccccc31)[C@@H](CO)N2CC1CCCC1
(15) C[C@@H]1CCCCO[C@H](CN(C)C(=O)Cc2ccccc2)[C@H](C)CN([C@@H](C)CO)C(=O)c2cc(NC(=O)c3ccncc3)ccc2O1
(16) CN1[C@@H](CO)[C@@H]2c3ccccc3NC[C@@H]21

Assay by compound | 9 | 10 | 11 | 12 | 13 | 14 | 15 | 16
Vaccinia inh | 8 | 16 | 0 | -23 | -4&-22 | -2 | 14 | 3
Vaccinia inh Venus | 11 | 4 | -5 | -10 | -5&-24 | -1 | -3 | 10

(17) COc1ccc(NC(=O)Nc2ccc3c(c2)C(=O)N([C@@H](C)CO)C[C@@H](C)[C@H](CN(C)Cc2ccc(C(=O)O)cc2)OCCCC[C@H](C)O3)cc1
(18) C[C@@H]1CN([C@H](C)CO)C(=O)c2cc(NC(=O)NC3CCCCC3)ccc2O[C@@H](C)CCCCO[C@H]1CN(C)S(=O)(=O)c1cn(C)cn1
(19) Cn1cnc(S(=O)(=O)N2CC[C@@H]3[C@H](CO)Nc4ccc(-c5ccccc5)cc4[C@@H]32)c1
(20) O=C(c1ccccn1)N1CC(=O)N2[C@H](C1)[C@@H](c1ccc(C#Cc3ccccc3)cc1)[C@@H]2CO
(21) C[C@H](CO)N1C[C@H](C)[C@@H](CN(C)C(=O)Nc2ccc(C(F)(F)F)cc2)Oc2ccc(N(C)C)cc2CC1=O
(22) COc1ccc(NC(=O)N(C)C[C@@H]2Oc3ccc(NS(=O)(=O)c4ccc(Cl)cc4)cc3C(=O)N([C@@H](C)CO)C[C@H]2C)cc1
(23) C[C@H](CO)N1C[C@H](C)[C@@H](CN(C)C(=O)c2cccnc2)Oc2ncc(-c3ccccc3)cc2C1=O
(24) O=C([C@H]1[C@H](CO)[C@H]2Cn3c(ccc(-c4ccncc4)c3=O)[C@@H]1N2Cc1ccccc1)N1CCOCC1

Assay by compound | 17 | 18 | 19 | 20 | 21 | 22 | 23 | 24
Vaccinia inh | 3 | 33 | -31 | -25 | -12 | 17 | 4 | 1
Vaccinia inh Venus | 1 | 14 | -14 | -31 | -6 | 9 | -1 | -9

Part of the list above in a different format:
item	canonical_smiles	Vaccinia inh	Vaccinia inh Venus
21	C[C@H](CO)N1C[C@H](C)[C@@H](CN(C)C(=O)Nc2ccc(C(F)(F)F)cc2)Oc2ccc(N(C)C)cc2CC1=O	-12	-6
22	COc1ccc(NC(=O)N(C)C[C@@H]2Oc3ccc(NS(=O)(=O)c4ccc(Cl)cc4)cc3C(=O)N([C@@H](C)CO)C[C@H]2C)cc1	17	9
23	C[C@H](CO)N1C[C@H](C)[C@@H](CN(C)C(=O)c2cccnc2)Oc2ncc(-c3ccccc3)cc2C1=O	4	-1
24	O=C([C@H]1[C@H](CO)[C@H]2Cn3c(ccc(-c4ccncc4)c3=O)[C@@H]1N2Cc1ccccc1)N1CCOCC1	1	-9

Next section.
(25) CCNC(=O)Nc1ccc2c(c1)C(=O)N(C)[C@H]1CC[C@H](CC(=O)NCc3ccc(F)cc3)O[C@H]1CO2
(26) O=C(C1CCOCC1)N1CC(=O)N2[C@H](CO)[C@H](c3ccc(C#Cc4cccc(F)c4)cc3)[C@@H]2C1
(27) C[C@H](CO)N1C[C@H](C)[C@H](CN(C)C(=O)C2CCOCC2)Oc2ncc(-c3cccnc3)cc2C1=O
(28) COc1ccc(-c2ccc([C@@H]3[C@H](C#N)N(C(=O)NC4CCCCC4)[C@H]3CO)cc2)cc1
(29) O=C1CN(S(=O)(=O)c2cccc(F)c2)C[C@@H]2[C@H](c3ccc(-c4ccccc4)cc3)[C@@H](CO)N12
(30) COCCNC(=O)C[C@H]1CC[C@@H]2[C@@H](COc3ccc(NC(=O)C4CCOCC4)cc3C(=O)N2C)O1
(31) Cc1noc(C)c1S(=O)(=O)Nc1ccc2c(c1)C(=O)N([C@H](C)CO)C[C@@H](C)[C@H](CN(C)C(=O)Nc1ccc(F)cc1)OCCCC[C@@H](C)O2
(32) O=S(=O)(c1ccccc1)N1C[C@H]2[C@@H](c3ccccc31)[C@@H](CO)N2Cc1ccccn1

Assay by compound | 25 | 26 | 27 | 28 | 29 | 30 | 31 | 32
Vaccinia inh | 9 | 0 | 15 | -14 | ? | 0 | -7 | 1
Vaccinia inh Venus | 6 | -31 | -1 | 2 | / | -10 | -14 | 17

(33) Cc1ccc(S(=O)(=O)N(C)C[C@@H]2Oc3ccc(NC(=O)NC4CCCCC4)cc3CC(=O)N([C@@H](C)CO)C[C@@H]2C)cc1
(34) C[C@H](NC(=O)C[C@@H]1C[C@@H]2c3cc(NC(=O)Nc4ccc(C(F)(F)F)cc4)ccc3O[C@@H]2[C@@H](CO)O1)c1ccccc1
(35) C[C@H](CO)N1C[C@H](C)[C@@H](CN(C)C(=O)Nc2ccc(C(F)(F)F)cc2)Oc2ccc(NC(=O)C3CC3)cc2C1=O
(36) COc1cccc(S(=O)(=O)Nc2ccc3c(c2)[C@@H]2C[C@H](CC(=O)NC4CCCCC4)O[C@H](CO)[C@@H]2O3)c1
(37) C[C@@H]1CN([C@@H](C)CO)C(=O)c2cc(NC(=O)NC3CCCCC3)ccc2O[C@@H]1CN(C)C
(38) C[C@@H]1CN([C@@H](C)CO)C(=O)c2cccc(NS(C)(=O)=O)c2O[C@@H]1CN(C)Cc1ccc(Oc2ccccc2)cc1
(39) COCC#Cc1cnc2c(c1)C(=O)N([C@@H](C)CO)C[C@H](C)[C@@H](CN(C)C(=O)Nc1ccccc1OC)O2
(40) C[C@@H]1CN([C@@H](C)CO)C(=O)c2cc(C#CCC3CCCC3)cnc2O[C@@H]1CN(C)S(=O)(=O)c1cccs1

Assay by compound | 33 | 34 | 35 | 36 | 37 | 38 | 39 | 40
Vaccinia inh | ? | 0 | 8 | 8 | 13 | 7 | 25 | ?
Vaccinia inh Venus | / | 5 | 7 | 6 | 7 | -5 | 15 | /

(41) CC(C)NC(=O)N1CC(=O)N2[C@H](CO)[C@H](c3ccc(C#CCN(C)C)cc3)[C@@H]2C1
(42) C[C@@H]1CN([C@H](C)CO)C(=O)c2cc(N(C)C)ccc2O[C@@H](C)CCCCO[C@@H]1CN(C)C(=O)c1ccccc1
(43) C[C@H]1CN([C@@H](C)CO)C(=O)c2cc(-c3ccncc3)cnc2O[C@@H]1CN(C)S(=O)(=O)c1ccccc1
(44) COc1ccc(COCC23N=C4SCC(=O)N4[C@H](c4ccccc4O2)[C@H]3COC(=O)c2ccccc2)cc1
(45) CO[C@H]1CN(C)C(=O)c2ccc(NS(=O)(=O)c3cccc(F)c3)cc2OC[C@@H](C)N(Cc2cc(F)ccc2F)C[C@H]1C
(46) Cc1noc(C)c1NC(=O)N(C)C[C@@H]1Oc2ccc(NC(=O)CCC(F)(F)F)cc2C(=O)N([C@H](C)CO)C[C@H]1C
(47) C/C=C/c1ccc([C@@H]2[C@H](CO)N(C(=O)CC)[C@H]2CNC(=O)C2CC2)cc1
(48) C[C@H](CO)N1C[C@H](C)[C@H](CN(C)Cc2ccc(Cl)c(Cl)c2)Oc2ccc(NC(=O)Nc3ccc4c(c3)OCO4)cc2CC1=O

Assay by compound | 41 | 42 | 43 | 44 | 45 | 46 | 47 | 48
Vaccinia inh | 4 | -26 | 0 | -9 | -30 | 0 | 9 | -28
Vaccinia inh Venus | 0 | 1 | 3 | -7 | -23 | 7 | 19 | -13

Reprinted from the part before: 4 entries, then new ones.
(45) CO[C@H]1CN(C)C(=O)c2ccc(NS(=O)(=O)c3cccc(F)c3)cc2OC[C@@H](C)N(Cc2cc(F)ccc2F)C[C@H]1C
(46) Cc1noc(C)c1NC(=O)N(C)C[C@@H]1Oc2ccc(NC(=O)CCC(F)(F)F)cc2C(=O)N([C@H](C)CO)C[C@H]1C
(47) C/C=C/c1ccc([C@@H]2[C@H](CO)N(C(=O)CC)[C@H]2CNC(=O)C2CC2)cc1
(48) C[C@H](CO)N1C[C@H](C)[C@H](CN(C)Cc2ccc(Cl)c(Cl)c2)Oc2ccc(NC(=O)Nc3ccc4c(c3)OCO4)cc2CC1=O
(49) COc1ccccc1-c1ccc2c(c1)O[C@H](CN(C)C(=O)c1ccncc1)[C@H](C)CN([C@H](C)CO)S2(=O)=O
(50) CCC(=O)Nc1ccc2c(c1)C(=O)N(C)C[C@@H](OC)[C@H](C)CN(C(=O)CC1CC1)[C@@H](C)CO2
(51) CNC[C@H]1Oc2c(NC(=O)C3CCOCC3)cccc2C(=O)N([C@H](C)CO)C[C@H]1C
(52) C[C@@H]1CN([C@@H](C)CO)C(=O)c2cc(/C=C/c3ccccc3)cnc2O[C@@H]1CN(C)S(=O)(=O)c1ccc(F)cc1
(53) C[C@H]1CN([C@@H](C)CO)C(=O)Cc2cc(NS(=O)(=O)c3ccc(F)cc3)ccc2O[C@@H]1CN(C)Cc1ccc(C(F)(F)F)cc1
(54) C[C@@H]1CN([C@@H](C)CO)C(=O)c2cc(NS(C)(=O)=O)ccc2O[C@@H](C)CCCCO[C@H]1CN(C)Cc1ccncc1
(55) O=C(NCc1cccc(F)c1)[C@@H]1[C@@H](CO)[C@@H]2Cn3c(ccc(-c4ccncc4)c3=O)[C@H]1N2CC1CC1
(56) COc1ccc(CNC(=O)C[C@H]2C=C[C@H](NS(=O)(=O)c3cccc(OC)c3)[C@H](CO)O2)cc1
(57) CN(C)C(=O)C[C@@H]1CC[C@@H]2[C@H](COC[C@@H](O)CN2C(=O)C2CCCC2)O1

Assay by compound | 45 | 46 | 47 | 48 | 49 | 50 | 51 | 52 | 53 | 54 | 55 | 56 | 57
Vaccinia inh | -30 | 0 | 9 | -28 | 2 | 4 | -5 | ? | -18 | 19 | 9 | 4 | 2
Vaccinia inh Venus | -23 | 7 | 19 | -13 | 3 | 5 | 1 | / | -22 | 17 | 7 | 4 | 4
